Source: PubChem BioAssay
PKD1 kinase inh: inhibitors of human PKD1 kinase; Q15139; PKD1 kinase fluorescence polarization assay; inhibition, %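 (about 10 µM by stock and volumes)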; 0.056% of 200,000 active;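 active = inhibition of 50% or more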;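 note: controls were vehicle for no effect and a reference inhibitor for full effect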
Target sequence (Q15139 whole entry, looked up): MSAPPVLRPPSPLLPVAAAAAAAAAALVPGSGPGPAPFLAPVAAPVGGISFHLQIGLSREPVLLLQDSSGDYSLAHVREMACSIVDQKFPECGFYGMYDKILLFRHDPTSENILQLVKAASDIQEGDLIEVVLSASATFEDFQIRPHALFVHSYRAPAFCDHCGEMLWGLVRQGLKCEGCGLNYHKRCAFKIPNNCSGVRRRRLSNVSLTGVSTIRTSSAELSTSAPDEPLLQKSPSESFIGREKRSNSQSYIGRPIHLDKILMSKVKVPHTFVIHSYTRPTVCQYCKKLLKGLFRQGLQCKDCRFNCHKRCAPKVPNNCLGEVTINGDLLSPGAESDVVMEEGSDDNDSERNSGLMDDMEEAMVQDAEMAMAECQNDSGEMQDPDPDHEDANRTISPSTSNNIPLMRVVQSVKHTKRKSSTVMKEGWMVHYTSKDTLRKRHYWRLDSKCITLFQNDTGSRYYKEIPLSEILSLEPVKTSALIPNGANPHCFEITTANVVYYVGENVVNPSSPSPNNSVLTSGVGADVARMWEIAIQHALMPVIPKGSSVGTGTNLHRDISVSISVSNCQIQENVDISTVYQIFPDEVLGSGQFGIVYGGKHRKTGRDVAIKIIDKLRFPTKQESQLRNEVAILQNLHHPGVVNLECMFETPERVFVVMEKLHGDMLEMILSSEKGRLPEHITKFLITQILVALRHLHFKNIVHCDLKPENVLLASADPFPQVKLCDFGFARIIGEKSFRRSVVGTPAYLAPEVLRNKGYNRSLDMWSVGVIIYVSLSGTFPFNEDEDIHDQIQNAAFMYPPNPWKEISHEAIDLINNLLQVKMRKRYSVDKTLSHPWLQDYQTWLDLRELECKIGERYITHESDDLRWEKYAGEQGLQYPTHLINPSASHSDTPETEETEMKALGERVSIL
INS promoter inh: TRM-6 insulin promoter activity inhibition; TRM-6 cells (human fetal islet line), insulin promoter-eGFP reporter, imaging; reporter expression induced with tamoxifen; inhibition, % at 2 µM; 0.9% of 130,000 active;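 active = inhibition above the mean plus 3 SD, with well images judged a real hit on visual review, cut at about 60% in these data, passing the limit was not always enough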
RGS16-Gao HTS: modulates binding between human RGS16 and Galphao; O15492+P09471; bead-based flow cytometry RGS16-Galphao binding, fluorescence; actives lie on both sides; binding response (% of control), % at 10 µM; 0.38% of 220,000 active; AID 1441;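 active = below 25% or above 175%, edge rows of some plates excepted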;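 note: Galphao activated by GDP with aluminum fluoride before binding; 100% = wells without compound and 0% = beads without RGS; some results beyond the cut were filed as inactive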
GALR2 agonist: activates the human galanin receptor 2; O43603; GALR2-expressing cells, agonist activation read-out; activation, %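 (tested at 5 µM)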; 0.48% of 140,000 active; AID 803;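 active = above mean plus 3 SD of all compounds, about 5% in these data, not always enough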;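 note: 0% = vehicle buffer wells and 100% = reference agonist at full effect; tested in CHO reporter cells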
HSV augment: increases HSV replication in cells; HSV replication augmentation in cells, fold increase; maximum fold increase; 0.005% of 220,000 active; AID 1956;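 active = peak rise of 1.5-fold or more in the series; tested in PC3 cells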;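 note: first round at 10 µM; read as green reporter fluorescence; hits show the peak of a series up to 25 µM; 1 = signal of infected wells without compound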
INS promoter inh cell count: second read-out of INS promoter inh, no call of its own (marks repeat the call); normalized cell count, %; measured here: cell count, toxicity; reference of the scale not given here;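 cells exposed to compound for 48 h; stained nuclei by imaging scaled within each plate; lower means fewer cells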
HSV augment primary fold: further read-out of HSV augment, marked with its call; fold increase; compound at 10 µM; measured here: primary screen fold increase 10 uM; tested in PC3 cells;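 GFP signal in the first replicate; 1 = infected wells without compound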
The depositor's hits bear a star; i = inactive; . = not tested or not shown. Rows were taken by chance. About 1.3% of those tested had a hit in this group.

SMILES	PKD1 kinase inh	INS promoter inh	INS promoter inh cell count	RGS16-Gao HTS	GALR2 agonist	HSV augment	HSV augment primary fold
CC1(C(=O)NC2CCCC2)CCC(=O)N1Cc1cccs1 (stereo not given)	3.5	.	.	102.6	-1.6	i	0.86
O=C(Nc1ccc(NC(=O)C2CC2)nc1)c1ccncc1	-3.2	-14.3	115.9	100.6	0.3	i	0.99
CCOC(=O)NNc1ccccc1	.	.	.	110.4	.	i	0.92
COc1ccc(-c2csc(N3CCN(C(=O)c4ccccc4)CC3)n2)cc1	0.9	-244.8	16.5	106.4	-1.9	i	0.75
CC(C(=O)Nc1ccc(S(N)(=O)=O)cc1)N1CCc2ccccc21 (stereo not given)	0.3	15.0	161.1	100.4	.	i	1.01
O=c1oc(-c2cccc(Cl)c2)nc2c1cnn2-c1ccccc1	0.2	11.4	128.0	110.0	-0.1	i	0.9
O=C(Nc1cccc(C(F)(F)F)c1)c1cnccn1	-8.0	33.3	213.5	101.8	.	i	1.1
CCOC(=O)NN1C(=O)c2ccccc2NC1c1ccccc1O (stereo not given)	2.1	-2.8	107.4	108.3	-1.4	i	1.01
COc1ccc(NC(=O)CSc2nnc(-c3ccccc3C)n2N)cc1	0.3	.	.	82.5	-3.2	i	0.95
COc1cc(CNc2ccc(O)cc2)cc(Br)c1OCc1ccccc1	5.0	.	.	107.2	.	i	1
CCn1c(=NC(=O)c2ccc(N3C(=O)CCC3=O)cc2)sc2c(OC)ccc(OC)c21	-10.6	.	.	92.2	0.0	i	0.93
CCOc1ccc(-c2nc(CN(Cc3ccccc3)C[C@@H]3CCC(=O)N3)c(C)o2)cc1	-3.0	.	.	86.4	.	i	0.99
CC(C)(C)NC(=O)C(=O)NN=C1CCCCCCC1	-7.2	.	.	98.4	.	i	1.01
CC(=O)Nc1cccc(NC(=O)C(F)(F)F)c1	-9.1	.	.	97.5	.	i	1.01
Cc1ccc(S(=O)(=O)NN=C2CCC(C(C)(C)C)CC2)cc1[N+](=O)[O-] (stereo not given)	11.9	-52.9	118.7	98.8	0.4	i	0.99
C=CCOc1cccc(C2c3c(oc4ccc(F)cc4c3=O)C(=O)N2CCCN2CCOCC2)c1 (stereo not given)	.	.	.	99.3	.	i	1.35
Cc1ccc(COc2ccc(/C=N/NC(=O)CN3CCCCC3)cc2)cc1	1.7	0.0	119.9	96.8	.	i	0.99
CC(C)N1CCc2c(sc(NC(=O)CN3C(=O)c4ccccc4C3=O)c2C(N)=O)C1	-1.7	47.4	143.5	102.7	.	i	1.17
COc1ccc([N+](=O)[O-])cc1N(CC(=O)NCCSc1ccccc1)S(C)(=O)=O	1.5	.	.	106.3	.	i	0.85
Cc1ccccc1NC(=S)N(Cc1ccco1)C(C)c1ccccn1 (stereo not given)	-2.3	.	.	105.1	.	i	0.86
COCCNS(=O)(=O)c1cc(OC)ccc1OC	-2.8	26.3	88.6	104.9	.	i	0.89
COC(=O)C(C)n1nnc2sc(-c3ccccc3)cc2c1=O (stereo not given)	-7.3	18.5	139.9	90.2	.	i	0.92
CCOC(=O)Cc1cnc(NC(=O)c2ccccc2)s1	-2.6	.	.	96.9	-1.1	i	0.79
Cc1cc(NC(=O)CCC(=O)N(c2ccccc2)C2(C(=O)NC3CCCCC3)CCCC2)no1	-13.9	-48.4	82.2	102.8	-1.9	.	.
COCC(C)NC(=O)c1cc2cccc([N+](=O)[O-])c2[nH]1 (stereo not given)	.	.	.	106.7	.	i	0.97
CCC(C)(C)NC(=O)C(c1ccncc1)N(Cc1cccs1)C(=O)Cn1nnc2ccccc21 (stereo not given)	-5.6	.	.	96.3	0.0	i	0.99
c1ccc2c(CN3CCCCC3)csc2c1	-10.9	13.3	109.3	109.2	-1.1	i	0.91
O=C(NC1CCCCC1)c1cc(Cl)ccc1[N+](=O)[O-]	3.9	-21.2	142.7	101.8	1.2	i	0.85
Cc1ccc(S(=O)(=O)N(CC(=O)Nc2cccc([N+](=O)[O-])c2)Cc2ccc(Cl)cc2)cc1	-8.3	.	.	115.6	-0.3	i	0.89
Cc1ccc(CNc2ncnc3cc(Cl)ccc23)o1	4.2	64.3	151.4	103.3	-3.9	i	0.97
Cc1ccc(C2CC(C(F)(F)F)n3ncc(C(=O)NCc4ccco4)c3N2)cc1 (stereo not given)	-10.6	-9.1	110.7	100.9	-0.3	i	0.78
CN(C)c1cccc(-c2nnc(SCCCC#N)o2)c1	-0.1	-33.3	87.3	104.0	-0.1	i	0.82
CC(C)CCN(CCC(C)C)CC(O)Cn1c2ccccc2c(=O)c2ccccc21 (stereo not given)	.	.	.	107.7	.	i	0.87
CCc1cccc(C)c1NC(=O)CSc1nc2ccc(N3C(=O)c4ccccc4C3=O)cc2s1	2.0	.	.	104.8	-2.4	.	.
COc1ccc(-n2c(C)cc(/C=C3\SC(=S)NC3=O)c2C)cc1	-2.2	.	.	103.2	.	i	1.22
C=CCOc1c2ccc(C(=O)NCc3ccc(C)cc3)cc2nn1C	-5.4	.	.	100.4	0.2	i	0.76
CCOC(=O)c1c(C(C)(C)C)oc2ccc(OCC#N)cc12	0.1	-3.2	117.0	101.2	-2.2	i	0.88
O=C(NCc1ccccn1)c1cc(-n2cnnc2)ccc1Cl	-2.4	-476.9	58.0	99.7	-3.8	i	0.9
CCCCNC(=S)N(C)/N=C/c1c(F)c(F)c(F)c(F)c1F	-6.9	0.0	102.4	111.5	0.9	i	0.96
COC(C[C@@H](O)CC(=O)[C@H](C)OCc1ccccc1)OC	.	.	.	97.2	.	i	0.91

In the list so far, three contain a tert-butyl group:
SMILES	PKD1 kinase inh	INS promoter inh	INS promoter inh cell count	RGS16-Gao HTS	GALR2 agonist	HSV augment	HSV augment primary fold
CC(C)(C)NC(=O)C(=O)NN=C1CCCCCCC1	-7.2	.	.	98.4	.	i	1.01
Cc1ccc(S(=O)(=O)NN=C2CCC(C(C)(C)C)CC2)cc1[N+](=O)[O-] (stereo not given)	11.9	-52.9	118.7	98.8	0.4	i	0.99
CCOC(=O)c1c(C(C)(C)C)oc2ccc(OCC#N)cc12	0.1	-3.2	117.0	101.2	-2.2	i	0.88

Next part
SMILES	PKD1 kinase inh	INS promoter inh	INS promoter inh cell count	RGS16-Gao HTS	GALR2 agonist	HSV augment	HSV augment primary fold
Cc1ccccc1-n1c(Cn2c(=O)sc3ccccc32)nnc1SCC(=O)N1CCCC1	-1.2	.	.	83.6	-1.4	.	.
O=C(C/C(=N\NC(=O)c1ccccc1Br)C(F)(F)F)c1cccs1	-8.0	-25.8	67.0	105.3	0.0	i	1.01
COc1c(F)c(F)c(C(=O)Nc2ccc(NC(=O)c3ccco3)cc2)c(F)c1F	-5.2	-35.1	144.3	103.4	-2.2	i	0.85
O=C(NCCc1ccccc1)Nc1ccc(Cl)cc1	-4.4	.	.	109.1	-1.0	i	1.1
O=c1oc2c(CN3CCCCC3)c(O)ccc2c2c1CCCCC2	-1.1	-68.8	102.0	79.7	1.4	.	.
CCn1c(O)c(C2=c3ccccc3=NC2=O)c2cc(Br)ccc21	-0.1	.	.	88.8	.	i	0.93
CCCn1cc(CN2CCCC(CNC(=O)c3ccc(F)cc3)C2)c(C)n1 (stereo not given)	-3.3	.	.	111.7	.	i	1.02
COc1ccc(CCNc2nc(C)nc3c2oc2ccccc23)cc1OC	1.7	59.5	81.7	95.4	-0.7	i	0.87
CCn1cc(C(=O)O)c(=O)c2cc(Br)ccc21	-5.0	29.2	109.5	104.4	-1.0	i	0.88
CCOc1ccc(NC(=S)N2CCCN(Cc3cc(C)ccc3C)C2)cc1	0.5	-7.1	74.3	109.1	.	i	0.82
CCc1c(C)nc(Nc2nc(C)c3ccc(OC)cc3n2)[nH]c1=O	-7.7	51.6	104.9	102.6	0.4	i	0.66
O=C(/C=C/c1ccccc1)NC(=S)Nc1ccc(CN2CCOCC2)cc1	1.0	42.9	127.7	104.6	-0.6	i	1.11
O=C(O)C1(NS(=O)(=O)c2ccc(Cl)cc2)CCCCC1	-6.6	1.4	69.6	106.6	-1.1	i	0.93
Clc1ccccc1CO/N=C1\CCCc2nonc21	-2.7	15.4	145.0	108.8	0.4	i	0.89
Cc1ccccc1-c1nn(-c2ccc(F)cc2F)cc1CNCCN(C)C	-2.6	.	.	95.9	.	i	0.88
CC(C)CNC(=O)C(=O)NCCCN1CCOCC1	0.2	.	.	110.5	.	i	1.07
CCOc1cc(C(=O)Nc2ccc(NC(C)=O)cc2)ccc1OCC(=O)N1CCCCC1	2.7	-30.0	81.9	82.5	0.0	i	0.95
c1csc(-c2nn3cnnc3c3ccccc23)c1	-8.4	-24.3	117.0	101.7	.	i	0.99
CC(=C1C(=O)c2ccccc2C1=O)N1CCN(CCN=CC2=C(O)CC(C)(C)CC2=O)CC1	9.3	-13.3	53.3	98.0	-2.4	i	0.95
CN1C=C(C(F)(F)F)C=C/C1=C(\C#N)c1nnc2n1CCCCC2	-3.2	.	.	96.1	-0.8	i	0.88

Results in HSV augment primary fold, PKD1 kinase inh and INS promoter inh, for three of the compounds above:
SMILES,HSV augment primary fold,PKD1 kinase inh,INS promoter inh
CN(C)c1cccc(-c2nnc(SCCCC#N)o2)c1,0.82,-0.1,-33.3
CC(C(=O)Nc1ccc(S(N)(=O)=O)cc1)N1CCc2ccccc21 (stereo not given),1.01,0.3,15.0
O=c1oc(-c2cccc(Cl)c2)nc2c1cnn2-c1ccccc1,0.9,0.2,11.4

Next section.
SMILES	PKD1 kinase inh	INS promoter inh	INS promoter inh cell count	RGS16-Gao HTS	GALR2 agonist	HSV augment	HSV augment primary fold
Cc1[nH]nc2c1C(c1ccc(OC(=O)c3ccco3)cc1)C(C#N)=C(N)O2 (stereo not given)	7.7	7.1	104.4	103.2	-4.8	i	0.96
Cc1cc(C)c(Cn2cnc(-c3ccc([N+](=O)[O-])cc3)c2)c(C)c1	-2.6	.	.	72.5	-0.7	i	0.79
CC(C)(C)C1=Nn2c(nnc2-c2ccccn2)SC1	-5.3	.	.	97.0	-1.8	i	0.99
Cc1ccc(C(=O)O)cc1NC(=O)CN1C(=O)C2C3c4ccccc4C(Br)(c4ccccc43)C2C1=O (stereo not given)	-5.1	-6.7	151.7	101.4	-2.0	i	1.04
CCOc1ccc(NCc2nc3ccccc3n2CCOc2ccccc2)cc1	4.1	10.3	107.7	68.5	-0.2	i	0.98
CSc1n[nH]c2nc3c(c(=O)n12)C1(CCCCC1)Cc1ccccc1-3	.	.	.	100.7	.	i	0.97
Cc1ccc(C2=NN(CC(=O)NCc3ccccn3)C(=O)CC2)cc1	4.5	-4.8	123.0	105.4	0.0	i	1.07
CC(NC(=O)c1ccco1)C(c1cccs1)N1CCN(c2ccc(F)cc2)CC1 (stereo not given)	-9.1	-57.1	114.4	99.5	-0.6	i	0.92
C=CCN(CC=C)C(=O)COC(=O)c1n[nH]c2ccccc12	-5.9	.	.	96.0	.	i	1
O=C(C1CCCO1)N1CCN(S(=O)(=O)c2ccccc2)CC1 (stereo not given)	-11.8	-281.2	73.1	102.8	-2.2	i	1.11
O=c1nc(-c2ccccc2)c2cc(Cl)ccc2[nH]1	-4.1	-31.2	113.5	97.4	-0.9	i	1.13
CCCCc1cc(=O)oc2cc(OCC(=O)N3CCc4ccccc43)ccc12	-2.5	18.5	109.3	97.3	-1.2	i	0.96
COc1ccc(-c2nc(SCc3ccccc3)n(S(C)(=O)=O)n2)cc1	-0.9	11.6	132.5	100.5	-3.5	i	0.83
CSc1cccc(NC(=O)CN(C2CCCCC2)S(C)(=O)=O)c1	-3.2	-15.4	78.6	95.1	-0.4	i	0.993
COc1cc(OC)cc(C(=O)NC(=S)NNC(=O)Cc2cccs2)c1	11.5	38.2	128.1	104.0	-2.0	i	1.02
Cc1cc(C)c2c(c1)/C(=N/NC(=O)c1cc(C)oc1C)CCC2	4.2	-46.1	109.9	90.4	0.1	i	1.04
O=C(O)CNC(=O)c1ccc(S(=O)(=O)N2CCOCC2)cc1	0.8	60.0	74.7	127.2	-0.1	i	1.03
CCN=C(Nc1ccc2c(c1)OCO2)SC1CC(=O)N(c2ccccc2F)C1=O (stereo not given)	-1.2	15.6	89.9	112.6	-1.4	i	0.94
Cc1ccccc1C1C(C#N)=C2N=C(N)c3c(sc4c3CCCCC4)N2C2=C1C(=O)CC(C)(C)C2 (stereo not given)	-7.5	.	.	101.7	-0.6	i	1.19
Cc1cccc(Nc2cc(C)c3c(O)cccc3n2)c1C	0.3	-36.6	54.2	120.2	-1.3	.	.
Cc1nn(Cc2ccccc2)c(C)c1C(=O)OCC(=O)c1cc(C)n(CC(F)(F)F)c1C	-8.3	42.9	84.6	100.4	-0.5	i	1.03
COc1ccc(C)cc1S(=O)(=O)Nc1cccc(Cl)c1Cl	6.7	0.0	167.6	105.5	-1.7	i	0.98
Cc1cc(C(=O)NCc2ccc(Cl)cc2)n(-c2ccccc2)n1	.	.	.	106.4	.	i	1.01
